Screening results from PubChem BioAssay.
Rango dissoc inh – qHTS Assay for Inhibitors of RanGTP induced Rango (Ran-regulated importin-beta cargo) - Importin beta complex dissociation. Snurportin-1 (Homo sapiens) + GTP-binding nuclear protein Ran (Homo sapiens) + Importin …. Biochemical FRET Rango-importin beta, RanGTP-induced dissociation. Potency, µM (titrated, usually from 46.1 µM), for inactives: at the top dose activity change, negative = inhibition. 340,000 compounds, 0.071% hits; active means falling FRET ratio curve, often poorly fitted, with flat reads before Ran was added; inconclusive means other falling curves, or compound fluorescence or quenching; inactive means flat or rising ratio curve;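 also: potency is read from the fitted curve at half-maximal effect; % of control where 0% means no effect; nearly all actives have a fitted effect of over 45% in size; -100% = wells without RanGTP and RCC1; the record marks most hits as doubtful in a second field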
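Compounds sat 5 min at room temperature with 0.1 uM Rango biosensor plus 0.25 uM importin beta, then FRET pre-read. RanGTP-RCC1 (0.6 uM Ran, 2mM GTP, 0.2 uM RCC1) added for 45 min, and the CFP/YFP post-read measured blocked complex dissociation.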
miR-21 FLuc – qHTS Assay for Modulators of miRNAs and/orActivators of miR-21 | HeLa miR-21 FLuc reporter, luciferase, 48 h | Potency, µM (highest dose often 38.3 µM), inactives show at the top dose reporter change, positive = more light | 340,000 tested, under 10 active | AID 2288, 2010; active = well fitted rising curve with a large enough effect; inconclusive = small, poorly fitted or top-dose-only effect; inactive = no such curve, though single readings can be large or run the other way;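 also: % of control where 0% means no effect; miR-21 action dims this reporter so a rising signal means less miR-21 action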
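HeLa miR-21-FLuc reporter line, endogenous miR-21; 2000 cells/well in DMEM/10% FBS; compound titration up to ~40uM final, 48 h, 37 degree Celsius; luciferase detection reagent, 15 min lysis, CCD luminescence.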
GLA inh pH 4.5 – qHTS Assay for Inhibitors of Human alpha-Galactosidase at pH 4.5; Alpha-galactosidase A (Homo sapiens), P06280; purified enzyme, 4-MU-alpha-Gal fluorescence, pH 4.5; activity change, negative = inhibition, % at 105 µM; 230,000 tested, under 10 active; inconclusive = small, poorly fitted or top-dose-only inhibition, or a rising curve; inactive = flat fitted curve, though single readings scatter; no compound was filed as active;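 also: 0% = full activity with enzyme and -100% = basal without enzyme; dose as in the result columns while the protocol names 77 µM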
Rango complex inh – qHTS Assay for Inhibitors of Rango (Ran-regulated importin-beta cargo) - Importin beta complex formation | Importin subunit beta-1 (Homo sapiens), Q14974 | Rango CFP/YFP FRET sensor + importin beta, 45 min | Potency, µM (highest dose often 92.2 µM), for the others: at the top dose inhibition of complex formation | 340,000 compounds, 0.031% hits | AID 540263, 2011; active = rising FRET ratio curve, often small or poorly fitted; inconclusive = mostly compound fluorescence or quenching in the first reads; inactive = flat curves in all reads;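 also: potency is read from the fitted curve at half-maximal effect; 0% = DMSO wells and 100% = buffer wells lacking importin beta; nearly all actives have a fitted effect of over 15% in size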
Target sequence (Q14974 whole entry, looked up): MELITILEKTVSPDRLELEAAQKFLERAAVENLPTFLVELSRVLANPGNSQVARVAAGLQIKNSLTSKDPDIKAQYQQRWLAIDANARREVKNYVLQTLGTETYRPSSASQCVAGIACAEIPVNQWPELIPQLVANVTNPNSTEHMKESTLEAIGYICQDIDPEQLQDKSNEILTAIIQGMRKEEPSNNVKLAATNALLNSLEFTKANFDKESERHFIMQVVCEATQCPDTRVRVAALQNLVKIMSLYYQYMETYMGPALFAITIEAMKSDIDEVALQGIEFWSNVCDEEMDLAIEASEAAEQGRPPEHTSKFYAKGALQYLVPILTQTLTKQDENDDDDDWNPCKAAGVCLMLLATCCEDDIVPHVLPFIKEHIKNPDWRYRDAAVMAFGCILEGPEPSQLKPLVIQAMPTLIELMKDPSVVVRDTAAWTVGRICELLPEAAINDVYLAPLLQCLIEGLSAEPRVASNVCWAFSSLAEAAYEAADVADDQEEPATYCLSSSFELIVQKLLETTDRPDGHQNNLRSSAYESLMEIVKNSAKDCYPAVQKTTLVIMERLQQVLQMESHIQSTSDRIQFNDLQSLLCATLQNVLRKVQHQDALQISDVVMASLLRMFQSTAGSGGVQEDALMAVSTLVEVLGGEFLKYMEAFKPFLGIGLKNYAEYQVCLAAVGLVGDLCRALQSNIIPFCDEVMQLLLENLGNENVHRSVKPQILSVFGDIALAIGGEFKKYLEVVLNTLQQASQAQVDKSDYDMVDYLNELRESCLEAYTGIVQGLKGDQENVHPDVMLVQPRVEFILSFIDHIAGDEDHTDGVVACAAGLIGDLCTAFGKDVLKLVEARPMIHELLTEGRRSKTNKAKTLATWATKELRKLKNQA
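Inhibition scored from the CFP 486 nm/YFP 530 nm FRET ratio 45 min after adding 0.125 microM importin beta to 50 nM Rango biosensor preincubated 5 min with compound (room temperature, PBS with DTT, Tween-20, BSA). No-importin wells as positive control.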
An asterisk follows results filed as active; u = inconclusive; x = no result given; & = joins results of further samples; [ ] = another dose, or the depositor's remark.

SMILES	Rango dissoc inh	miR-21 FLuc	GLA inh pH 4.5	Rango complex inh
CCn1c(COc2cccc(OC)c2)nnc1SCC(=O)NCC1CCCO1 (stereo not drawn)	17%	4%	x	-6.0%
O=S(=O)(c1ccc2[nH]c3c(c2c1)CCCC3)N1CCCCC1	15%	6%	x	u
Cn1c(=O)c2c(nc(N/N=C3\CCCc4ccccc43)n2Cc2ccc(F)cc2)n(C)c1=O	-4%	4%	1	0.9%
N#CC1(NC(=O)CSc2nncn2-c2ccccc2F)CCCC1	-7%	x	x	1.0%
O=C(OCC#CCSc1nc2ccccc2o1)c1ccco1	-12%	-32%	-12	-3.7%
NC(=O)CC(NC(=O)OCc1ccccc1)C(=O)O (stereo not drawn)	27%	-4%	4	13%
COc1cc(/C=N/NC(=S)Nc2cccc(C(=O)O)c2)ccc1O	-12%	-24%	-4	2.6%
Cc1cc(C)cc(-n2nnnc2SCC(=O)Nc2cccc(NC(=O)c3ccco3)c2)c1	1%	22%	10	1.2%
O=C(Nc1ccccc1)Nc1cc(Cl)cc(Cl)c1	15%	u	-1	-1.5%
C=CCN1CC(C(=O)N2CCC(Cc3ccc(Cl)cc3)(C(=O)OCC)CC2)CC1=O (stereo not drawn)	-3%	3%	-3	-0.2%
O=C(Cn1c(=O)n(CCc2c[nH]c3ccccc23)c(=O)c2cccnc21)Nc1ccccc1F	7%	-7%	0	-0.3%
COCc1cc(C)nc(SCC(=O)NCc2ccco2)c1C#N	4%	-5%	-2	2.0%
COc1ccccc1C(=O)NC(C)C(c1cccs1)N1CCOCC1 (stereo not drawn)	8%	-4%	-1	1.9%
O=C(CSc1ncn[nH]1)Nc1nc(-c2cccc([N+](=O)[O-])c2)cs1	-9%	8%	-9	11%
Cc1nnc(SCc2ccccc2)n(N)c1=O	10%	-8%	1	-5.0%
CCOc1ccccc1NC(=O)C1CCN(C(=O)Cc2ccccc2)CC1	u	-1%	5	-5.5%
COc1cc(NC(=O)CSc2nc3ccccc3cc2C)c(C(=O)O)cc1OC	2%	-12%	1	1.0%
CCN(CC)C(=O)CSc1nc2c(sc(=S)n2-c2ccccc2)c(=O)n1-c1ccc(OC)cc1OC	14%	2%	x	0.5%
C=C1CC2C=C(NC(C)=O)CC(C1)C2 (stereo not drawn)	24%	-7%	16	-3.0%
CC12CCC(C(=O)N(Cc3ccccc3)Cc3ccccc3)(OC1=O)C2(C)C (stereo not drawn)	-3%	10%	4	-7.1%
O=C(O)c1ccccc1C(=O)NCc1ccc(F)cc1	-6%	0%	10	-3.0%
C=CCc1cccc2cc(C(=O)NC3CCCC3)c(=O)oc12	26%	-7%	2	3.6%
CC1CC(O)C(C)CN1 (stereo not drawn)	1%	6%	-1	-0.9%
CCOC(=O)NC(=O)c1cn(Nc2ccccc2)c(=O)[nH]c1=O	1%	-1%	0	4.5%
CCCNc1ncccc1C(N)=O	2%	5%	0	0.3%

One compound at a time (already shown). Values in the order: Rango dissoc inh, miR-21 FLuc, GLA inh pH 4.5, Rango complex inh
O=C(Cn1c(=O)n(CCc2c[nH]c3ccccc23)c(=O)c2cccnc21)Nc1ccccc1F is listed as 7%, -7%, 0, -0.3%
NC(=O)CC(NC(=O)OCc1ccccc1)C(=O)O (stereo not drawn) is listed as 27%, -4%, 4, 13%
C=CCN1CC(C(=O)N2CCC(Cc3ccc(Cl)cc3)(C(=O)OCC)CC2)CC1=O (stereo not drawn) is listed as -3%, 3%, -3, -0.2%
O=C(O)c1ccccc1C(=O)NCc1ccc(F)cc1 is listed as -6%, 0%, 10, -3.0%
COc1cc(/C=N/NC(=S)Nc2cccc(C(=O)O)c2)ccc1O is listed as -12%, -24%, -4, 2.6%

The listing continues.
SMILES	Rango dissoc inh	miR-21 FLuc	GLA inh pH 4.5	Rango complex inh
CCOC(=O)c1ccc(CNC(=O)c2cc(COc3ccccc3SC)on2)o1	1%	0%	x	0.9%
CC(C)CCSc1cc(NCCO)c([N+](=O)[O-])c2nonc12	-15%	10%	-1	u
CC(=O)/C(=C/c1ccc(N(C)C)cc1)C(=O)c1ccccc1	-28%	-1%	-17	u
O=C(COc1ccccc1Br)c1ccc(O)cc1O	14%	-39%	0	-3.3%
Cc1ccc([N+](=O)[O-])cc1NC(=O)c1ccoc1C	-9%	-38%	-2	-0.3%
CC1(C)CC(=O)C(C=NCC2CCCO2)=C(O)C1 (stereo not drawn)	3%	-1%	-3	1.6%
CC(C)C[C@H]1CNC(=S)N1CC1CCCN1C[C@H](CC(C)C)N1C[C@H](Cc2ccc(O)cc2)N(CC2CCCCC2)C1=S (stereo partly drawn)	7%	x	x	-2.2%
CC(C)(Oc1ccc(Cl)cc1)C(=O)Nc1ccc2oc(=O)ccc2c1	1%	5%	x	0.1%
CCCCS(=O)CC(COc1ccc(Cl)cc1)OC(=O)c1ccccc1 (stereo not drawn)	15%	-2%	-4	-5.7%
NC(=O)c1nsc(C(=O)N(Cc2ccco2)C(C(=O)NC2CCCC2)c2ccc(O)cc2)c1N (stereo not drawn)	3%	6%	x	-2.0%
COC(=O)c1cc(OC)c(OC)cc1NC(=O)c1ccc(C)cc1	1%	1%	4	-1.1%
COc1ccc(C(CNC(=O)Cc2ccccc2F)N2CCCCC2)cc1 (stereo not drawn)	-7%	-6%	7	1.2%
COc1ccc(C2C(C#N)=C(SC)NC3=C2C(=O)CC(C)(C)C3)cc1 (stereo not drawn)	-8%	-6%	-1	-3.8%
COc1ccccc1CNC(=O)CCCN1C(=O)COc2ccc(C)cc21	17%	-7%	2	0.1%
O=C(Nc1cccc(Cl)c1Cl)C1CCN(C(=O)c2cccs2)CC1	1%	-3%	x	1.5%
CCOc1ccccc1C1CC(=O)NC(SCC(=O)Nc2nccs2)=C1C#N (stereo not drawn)	3%	5%	2	-0.3%
O=C1C2C3C=CC([C@@H]2C(=O)N1C1CC1)[C@H]1C(=O)N(C2CC2)C(=O)C31 (stereo partly drawn)	0%	0%	-4	1.1%
O=C(/C=C/c1ccc(S(=O)(=O)N2CCOCC2)cc1)NCc1ccccc1	29%	-4%	1	2.0%
Cc1nc2sc(C(c3ccc(Br)cc3)N3CC(C)OC(C)C3)c(O)n2n1 (stereo not drawn)	2%	-8%	3	0.4%
CCCCc1nc2cc(C(=O)N3CCCCC3CC(=O)OCC)ccc2o1 (stereo not drawn)	5%	-34%	x	-0.8%
CC(C(=O)NCc1ccco1)n1ccc2cc(S(=O)(=O)N3CCCC3)ccc21 (stereo not drawn)	0%	1%	x	2.9%
Cc1ccc(NC2=CC(=O)CC(C)(C)C2)cc1C	-13%	-2%	1	0.1%
COc1ccc(Cl)cc1NC(=O)CSc1nc(C)cc(C)n1	9%	1%	5	-3.3%
O=C(NNC(=O)c1ccccc1Cl)c1ccc2c(=O)n3c(nc2c1)CCC3	1%	x	x	-1.1%
CCSc1nnc(NC(=O)CSc2nnc(-c3c[nH]c4ccccc34)n2CC)s1	1%	-5%	3	-1.5%
More structures follow:
SMILES	Rango dissoc inh	miR-21 FLuc	GLA inh pH 4.5	Rango complex inh
NS(=O)(=O)c1ccc(CNC(=S)NC2CCCC2)cc1	3%	-2%	1	-2.8%
COc1ccc(C2C(C#N)=C(/N=C/N3CCN(C)CC3)OC3=C2C(=O)CC(C)(C)C3)cc1 (stereo not drawn)	1%	-13%	-1	-0.7%
O=C(c1cc2ccccc2o1)N1CCN(c2ccccn2)CC1	-6%	-3%	x	-1.0%
CC(C)NC(=O)c1ccccc1NC(=O)/C=C/c1cccc([N+](=O)[O-])c1	19%	-1%	0	1.6%
O=C(O)COc1ccccc1/C=N/NC(=O)c1ccc2c(c1)OCCO2	-2%	0%	x	-3.9%
CC(=O)N(C)c1ccc(NC(=O)COc2ccc(Br)cc2C)cc1	1%	6%	0	4.5%
O=C(COC(=O)Cc1ccccc1[N+](=O)[O-])NC1CCCC1	9%	0%	2	-3.8%
CC12CCC(C(=O)NNc3ccc([N+](=O)[O-])cc3)(OC1=O)C2(C)C (stereo not drawn)	0%	7%	-14	8.4%
O=C(NC1CCCCC1)C(c1cccs1)N(C(=O)C(F)(F)F)c1ccccc1 (stereo not drawn)	3%	-2%	-4	1.5%
O=C(CC1(O)C(=O)N(CCc2ccccc2)c2ccccc21)c1ccccn1 (stereo not drawn)	1%	-3%	3[21.1 µM]	0.2%
COc1ccc(-c2noc(N3CCC(C(=O)N(C)c4ccccc4)CC3)n2)cc1	29%	13%	x	8.6%
CC(C)CCNC(=O)c1onc(CSc2ccccc2)c1C(=O)NCCC(C)C	6%	x	x	-2.5%
CCOc1ccccc1CNC(=O)CCc1cn(C)c2ccccc12	-11%	1%&9%	x	2.5%
O=C(CSC1=NC(=O)C(Cc2ccccc2)C(=O)N1)Nc1ncc(Br)cc1Br (stereo not drawn)	-10%	-2%	7	-3.8%
Cc1c(NC(=O)/C(=C/c2cccs2)c2cccs2)c(=O)n(-c2ccccc2)n1C	-3%	-7%	5	u
COc1ccc(NC(=O)CN(C)S(=O)(=O)c2ccc3c(c2)NC(=O)CS3)cc1	8%	3%	x	0.1%
Cc1noc(C)c1S(=O)(=O)NCCc1ccc(S(N)(=O)=O)cc1	-1%	2%	0	0.6%
CCSc1nnc2c(n1)OC1(CCCC1)Nc1ccccc1-2	-8%	-27%	-5	-0.3%
CCn1cc([N+](=O)[O-])c(C(=O)N2N=C(c3ccc4ccccc4c3)CC2c2ccccc2O)n1 (stereo not drawn)	-2%	3%	-3	-0.4%
CCOC(=O)c1cnc(-n2nc(C)cc2C)nc1N(C)C	1%	-9%	-2	-4.3%
CN(C)C(CNC(=O)c1cc(S(=O)(=O)N(C)c2ccc(F)cc2)ccc1Cl)c1ccco1 (stereo not drawn)	-7%	x	x	-2.7%
CCN(C(=O)c1cnc(N2CCN(c3ncccn3)CC2)c2ccccc12)c1cccc(Cl)c1	-2%	u	-8	1.1%
CC(C)NC(=O)c1ccc(COCC(F)(F)F)cc1	1%	-10%	3	-0.8%
COc1cc(C(=O)NC23CC4CC(CC(C4)C2)C3)cc(OC)c1OC	0%	2%	x	-0.4%
Cc1ccc(S(=O)(=O)N2CCN(C(=O)c3ccco3)CC2)cc1C	1%	-2%	x	4.4%
O=S(=O)(N/N=C/c1ccccc1OCc1ccc(Cl)cc1)c1ccccc1	1%	-4%	1	-0.8%
O=[N+]([O-])c1cc(S(=O)(=O)Nc2ccc(Cl)cc2)ccc1N/N=C/c1ccncc1	2%	0%	-6	0.8%
CCc1ccccc1NC(=O)CCC(=O)OCC(=O)c1ccc(-c2ccccc2)cc1	0%	-2%	-7	-4.8%
O=C1CC(Sc2ncccn2)C(=O)N1c1ccccc1C(F)(F)F (stereo not drawn)	6%	-1%	0	3.9%

Single values from the results shown:
Rango dissoc inh with CCn1cc([N+](=O)[O-])c(C(=O)N2N=C(c3ccc4ccccc4c3)CC2c2ccccc2O)n1 (stereo not drawn) = -2%
Rango dissoc inh with Cc1noc(C)c1S(=O)(=O)NCCc1ccc(S(N)(=O)=O)cc1 = -1%

2 records drawn at random from the list so far, as already listed:
SMILES	Rango dissoc inh	miR-21 FLuc	GLA inh pH 4.5	Rango complex inh
CCOC(=O)c1cnc(-n2nc(C)cc2C)nc1N(C)C	1%	-9%	-2	-4.3%
CC(C)NC(=O)c1ccccc1NC(=O)/C=C/c1cccc([N+](=O)[O-])c1	19%	-1%	0	1.6%

This is a subset (hit frequency here may not be typical).
